# Bead autofluor: counter-screen for toxin protease inhibitors: compound fluorescence. compound autofluorescence counterscreen, microsphere flow cytometry; active compounds read high. AID 624483. fluorescence intensity (no concentration beside the values). 3.1% of 360,000 active;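 active means at least 3 SD above the mean of all compounds, about 16000 in these data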;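 further: 100 nL of 1 mM stock went into each well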
# Starred values were filed as active, the others as inactive. Not all compounds are listed (hit frequency here may not be typical).
SMILES,Bead autofluor
O=P(C(=S)Nc1ccccc1Cl)(c1ccccc1)c1ccccc1,3286
CCOC(=O)C1(C)CCCCN1C(=O)c1ccco1 (centres undefined),3038
COc1cccc(-c2oc3c(c2-c2ccc(OC)nc2)C(O)CCC3)c1 (centres undefined),5216
C#Cc1ccc(NC(=O)C2(C)CCN2C(=O)C2(c3ccccc3)CCCC2)cc1 (centres undefined),3805
COc1ccc([C@H]2CC(=O)C[C@@H](CCn3cc(-c4ccccc4)nn3)O2)cc1,6470
O=C(NCc1ccccc1OC(F)(F)F)C1CCC(=O)N(CCCN2CCOCC2)C1 (centres undefined),3387
O=[N+]([O-])c1nccn1C1C=CC(O)C(CO)O1 (centres undefined),5439
COc1ncc(-c2c(-c3ccccc3OC)sc3ccccc23)cn1,4231
CCN(CC)C(=O)C1=C(C)N(Cc2ccc(C(C)(C)C)cc2)C(=O)C(CC(=O)NCc2cccs2)C1 (centres undefined),3680
COc1cccc(-c2cc(CNC(=O)[C@H]3O[C@@H](n4ccc(=O)[nH]c4=O)[C@H](O)[C@@H]3O)no2)c1,5340
O=C(O)c1cc(Cl)n[nH]c1=O,4239
CCCS(=O)(=O)NC(=O)C1(C)CCCN(C(=O)c2c(F)ccc(C)c2F)C1 (centres undefined),3775
CC1=C(C(=O)N(C(C)C)C(C)C)CC(CC(=O)NCc2cccs2)C(=O)N1Cc1ccc(F)cc1 (centres undefined),4354
Cc1ccc(N(CC(=O)N2CCCCCC2)S(C)(=O)=O)cc1,3977
C[C@@H]1CN([C@H](C)CO)C(=O)CCCn2nncc2CO[C@H]1CN(C)Cc1ccc(C(=O)O)cc1,2992
CCc1nc2ccc(C(=O)NCCCN3CCCC3=O)cn2c1N(CC)C(C)=O,3009
CC(C)C[C@H]1COc2cc(N3CCSCC3)ccc2S(=O)(=O)N1,5050
CC1(C(=O)NS(=O)(=O)c2ccccc2Cl)CCN1C(=O)CCC1CCCC1 (centres undefined),3821
C#CC1(NC(=S)Nc2cccc(OC)c2)CCCCC1,3432
CCCCNC(=O)c1ccc2nc(CC)c(N(CC)CCOC)n2c1,3852
O=C(NCCc1ccccc1)C1Cc2c(-c3ccc(Cl)cc3)ccnc2O1 (centres undefined),3824
O=c1ccn([C@@H]2O[C@H](CNCc3cccn3-c3nccs3)[C@@H](O)[C@H]2O)c(=O)[nH]1,5459
COc1ccc(C(NC(=O)C2CCN(Cc3ccc(Oc4ccccc4)cc3)CC2)c2ccccn2)cc1 (centres undefined),4921
COc1ccc(-c2cnc3c(NC(C)=O)cc(-c4ccc(C(=O)NC5CC5)cc4)cn23)cc1OC,2974
COc1ccccc1-c1cnc(C(O)c2ccc(C)c(F)c2)[nH]1 (centres undefined),2938
CC=CCn1c(SCCCc2ccccc2)nc2c1c(=O)[nH]c(=O)n2C,3020
Cc1c(C(=O)N2CCCCCC2(C)C(=O)NCC(C)C)oc2ccccc12 (centres undefined),2753
Cc1ccc(-c2cnc3cccnn23)cc1F,3505
CCc1nc2ccc(C(=O)NCCCN3CCCC3=O)cn2c1N(C=O)CC,2925
COC(=O)[C@]12CCCCC=C1N(Cc1ccccc1)C(=O)[C@H](CC(=O)NCCCCc1ccccc1)C2,6186

# Overlap with the part before: 6 compounds; new compounds follow.
SMILES,Bead autofluor
COc1ccccc1-c1cnc(C(O)c2ccc(C)c(F)c2)[nH]1 (centres undefined),2938
CC=CCn1c(SCCCc2ccccc2)nc2c1c(=O)[nH]c(=O)n2C,3020
Cc1c(C(=O)N2CCCCCC2(C)C(=O)NCC(C)C)oc2ccccc12 (centres undefined),2753
Cc1ccc(-c2cnc3cccnn23)cc1F,3505
CCc1nc2ccc(C(=O)NCCCN3CCCC3=O)cn2c1N(C=O)CC,2925
COC(=O)[C@]12CCCCC=C1N(Cc1ccccc1)C(=O)[C@H](CC(=O)NCCCCc1ccccc1)C2,6186
CC(=O)NC(c1ccccc1)c1nc(-c2cccs2)cs1 (centres undefined),3548
C[C@H](CO)N1C[C@H](C)[C@@H](CN(C)C)OCc2cnnn2CCCC1=O,3854
O=C(NC(c1ccccc1)c1cnccn1)C1CCN(CCCOc2ccccc2)CC1 (centres undefined),3692
CC(C)NC(=O)N(C)C[C@@H]1OCc2cn(nn2)CCCC(=O)N([C@H](C)CO)C[C@H]1C,3470
OC(c1ccccc1)c1ncc(-c2ccc(Cl)cc2)[nH]1 (centres undefined),3599
C[C@H](CO)N1C[C@H](C)[C@@H](CN(C)S(=O)(=O)c2cccc(F)c2)Oc2ncc(Br)cc2C1=O,2932
O=C1NC[C@H](CCCCN2C[C@H](Cc3ccc(O)cc3)N(CCC3CCCCC3)C(=O)C2=O)N(CCc2ccccc2)C1=O,4216
CN(C)c1ccc(NC(=O)Nc2ccc3c(c2)c(=O)n(C)n3Cc2ccc(Cl)cc2)cc1,2660
O=C1CSC(=S)N1Cc1ccccc1,3566
CC1=C(C(=O)N(C(C)C)C(C)C)CC(CC(=O)NCCN2CCOCC2)C(=O)N1Cc1ccccc1 (centres undefined),3566
CC(C)(C)C(=O)Nc1nnc([C@H]2C[C@H](O)[C@@H](CO)O2)s1,2928
CC(C)Oc1ccc(F)cc1-c1cc(C(=O)Nc2ccccc2)[nH]n1,3870
CCN(CC)CCN1CCN(c2cncc(-c3ccc4ccccc4c3)n2)CC1,4095
COC(=O)c1ccc2cn[nH]c2c1,2835
CC(=O)NCCNc1nc2cc(-c3ccccc3C)sc2c(=O)n1C,3565
Clc1cccc(N2Cc3cc(-c4ccccc4)ccc3-n3nncc3C2)c1,5343
CC1NC(=O)c2ccccc2-n2c1nc1ccc(F)cc1c2=O (centres undefined),4759
COc1ccc(CCCNC(=O)C2Cc3c(-c4cccc(C(N)=O)c4)ccnc3O2)cc1 (centres undefined),3758
CS(=O)(=O)Nc1cccc(NC(=O)C2Cc3c(-c4ccco4)ccnc3O2)c1 (centres undefined),4160
O=C(c1cccs1)N1C[C@H](n2cc(-c3ccc(F)cc3)nn2)[C@@H](O)C[C@@H]1c1ccc(Cl)cc1,3470

# 4 of the compounds above, as labelled records:
structure: CC(C)(C)C(=O)Nc1nnc([C@H]2C[C@H](O)[C@@H](CO)O2)s1
  Bead autofluor = 2928
structure: CC(C)Oc1ccc(F)cc1-c1cc(C(=O)Nc2ccccc2)[nH]n1
  Bead autofluor = 3870
structure: CCN(CC)CCN1CCN(c2cncc(-c3ccc4ccccc4c3)n2)CC1
  Bead autofluor = 4095
structure: COC(=O)c1ccc2cn[nH]c2c1
  Bead autofluor = 2835

# (further entries)
SMILES,Bead autofluor
OC(c1ccc(F)cc1)c1ncc(-c2ccccc2Cl)[nH]1 (centres undefined),3887
CCOC(=O)[C@]12CCCC=C1N(Cc1ccco1)C(=O)[C@H](CC(=O)N1CCCCC1)C2,5521
CC(C)c1ccc([C@@H]2O[C@H](C)CC3=C2C(=O)OC(C)(C)O3)cc1,5346
CN(C)c1cccc(Nc2ccc(-c3ccc(OC(F)(F)F)cc3)cn2)c1,3618
COc1ccccc1N1CCN(C(=O)CCCCCn2c(=S)[nH]c3cc4c(cc3c2=O)OCO4)CC1,3831
CN(C)CCN(C)C1CN(C2CCCC2)S(=O)(=O)C1 (centres undefined),6020
CC(C)CC(N)c1csc(Nc2ncccn2)n1 (centres undefined),4017
CN(C)c1cccc(NC(=O)c2ccc(-c3ccc(F)c(F)c3)c3ccoc23)c1,3906
O=Cc1c[nH]c2ccc(S(=O)(=O)N3CCCCC3)cc12,3928
C[C@@H]1CN([C@H](C)CO)S(=O)(=O)c2ccc(-c3ccc(C(=O)N(C)C)cc3)cc2O[C@H]1CN(C)C(=O)Cc1ccccn1,3813
CC1C(=O)N(Cc2cn(CC3CCCCC3)nn2)CCS(=O)(=O)N1Cc1ccc(-c2ccc(Cl)c(Cl)c2)cc1 (centres undefined),3465
COc1ccc(NC(=O)c2cc(C3CCCCN3C(=O)CCc3ccccc3)on2)c(C)c1 (centres undefined),2880
Cc1cn([C@H]2C[C@H](O)[C@@H](/C=C/C(=O)NCCN3CCOCC3)O2)c(=O)[nH]c1=O,5826
CC(=NNS(=O)(=O)c1ccc(C)cc1)c1ccccc1,2762
C[C@H](NC(=O)[C@@H]1CCCN1C(=O)[C@@H]1CCCN1C(=O)c1ccccc1)c1ccccc1,6122
COCCCn1cc(CN2CC(N3CCN(C4CCN(C)CC4)CC3)CS2(=O)=O)nn1 (centres undefined),5840
O=C(NCc1ccccc1CN1CCCC1)C1CCN(C(=O)c2ccc(Cl)cc2)CC1,6171
O=C(NCc1nnnn1-c1ccc(Cl)cc1)C(=O)c1c[nH]c2ccccc12,3012
COc1ccc(C2=Cc3ccccc3C(CC(=O)C3CC3)N2c2ccc(C#CCCO)cc2)cc1 (centres undefined),5142
CC1(C(=O)Nc2ccccc2)Cc2c(-c3ccc4c(c3)OCO4)ccnc2O1 (centres undefined),3445
Cc1cccc(CNC(=O)C2CCC(=O)N(CC3CCCCC3)C2)c1 (centres undefined),3840
C[C@@H]1CN([C@H](C)CO)C(=O)c2cc(Br)cnc2O[C@@H]1CN(C)C(=O)Cc1ccccc1,3990
COc1c(C)cc(C(O)c2ncc(-c3ccccc3C(F)(F)F)[nH]2)cc1C (centres undefined),3589
C[C@H](CO)N1C[C@H](C)[C@@H](CN(C)S(=O)(=O)c2ccccc2C#N)OCc2cnnn2CCCC1=O,3479
NC(c1csc(Nc2nccc(C(F)(F)F)n2)n1)C1CCCCC1 (centres undefined),3721
CC1(C(=O)NS(=O)(=O)c2cccc(C#N)c2)CCN1C(=O)c1ccccc1 (centres undefined),3705
COc1ccccc1Cc1c(-c2cccc(Cl)c2)nc2ccc(C)cn12,4995
CC(C)CNc1ncnc2c1ncn2[C@H]1CN(CCc2ccccc2)C[C@@H](CO)O1,3796
C=CCNc1ncnc2c1ncn2[C@H]1CN(Cc2cccs2)C[C@@H](CO)O1,3788
O=C(c1cccc(Cl)c1)N1CCC(=O)N([C@H](COCc2ccccc2)Cc2ccccc2)CC1,4164
CN(Cc1cn(Cc2cccc(C(F)(F)F)c2)nn1)C1CN(Cc2cn(Cc3cccc(C(F)(F)F)c3)nn2)S(=O)(=O)C1 (centres undefined),6320
Cc1cccc(S(=O)(=O)NC(=O)C2(C)CCN2C(=O)Cc2cc(F)ccc2F)c1 (centres undefined),4007
O=C(NCc1cccc(C(F)(F)F)c1)c1ccc2sc(COCCO)nc2c1,3759
Cc1cn([C@H]2C[C@H](O)[C@@H](CNCc3cc(Br)ccc3OCc3ccccc3)O2)c(=O)[nH]c1=O,3604
CCOC(=O)[C@]12CCC=C1N(Cc1cccc3ccccc13)C(=O)[C@H](CC(=O)NCCCOC)C2,5732
CCNC(=O)C1(C)CCN1C(=O)CCc1cccc(Cl)c1 (centres undefined),4108
O=C(c1cc(C2CC2)nn1-c1ccccc1)N1CCN(Cc2ccccc2)CC1,3687
CC(C)NC(=O)C1(C)CCCN1Cc1ccccc1 (centres undefined),3984
CC1=C(C(=O)N(C)C)CC(CC(=O)NCc2cccc3ccccc23)C(=O)N1Cc1ccc(F)cc1 (centres undefined),6185
O=C(c1ccccc1)n1c2ccccc2c(=O)n1-c1ccccc1CCl,5282
O=C1CCCCC(=O)[C@H](O)C[C@H](COCc2ccccc2)O1,6090
COC(=O)[C@@]1(Cc2ccc(F)cc2)[C@H]2c3cc(C(=O)N(C)C)n(Cc4cc(F)cc5c4OCOC5)c3C[C@H]2CN1C(=O)c1ccccc1,6200
O=C(c1ccc(N2CCCC2=O)cc1)N1CCN(c2ccc(C(F)(F)F)cc2[N+](=O)[O-])CC1,4001
CCN(CC)C(=O)C1=C(C)N(Cc2ccccc2)C(=O)C(CC(=O)NCCN2CCOCC2)C1 (centres undefined),3129
COc1ccc([C@H]2C[C@@H](O)[C@H](n3cc(-c4ccc(F)cc4)nn3)CN2CC2CCCCC2)cc1,3720
CCCCCCN1C[C@H](n2cc(-c3ccc(F)cc3)nn2)[C@@H](O)C[C@@H]1c1ccc(C)cc1,3950
Cc1ccc(F)cc1C(=O)N1CCCCC1c1cc(C(=O)Nc2ccccc2)no1 (centres undefined),3809
CCc1nc2ccc(C(=O)N3CCN(C(=O)c4ccco4)CC3)cn2c1N(C)Cc1cccs1,4154
COc1cc(NC(=O)Nc2nc(C(N)C(C)C)cs2)cc(OC)c1OC (centres undefined),3543
COc1ccc(C(c2nnnn2C2CCCC2)N2CCC3(CC2)C(=O)NCN3c2ccccc2)cc1 (centres undefined),6827

# Carrying on:
SMILES,Bead autofluor
O=C(C1CCCCC1)N1CCC2CC1c1cc(N3CCCCC3)ccc12 (centres undefined),11584
CCC(=O)N1CCC1(C)C(=O)NCc1ccccc1SC (centres undefined),2986
CCCS(=O)(=O)NC(=O)C1(C)CCCN(C(=O)COc2ccc(Cl)cc2Cl)C1 (centres undefined),2796
CCc1cc(CNC(=O)C2CCC(=O)N(Cc3ccccc3F)C2)on1 (centres undefined),3704
O=[N+]([O-])c1ccc(/C=N\N2CCN(Cc3ccccc3Cl)CC2)cc1,3792
O=C(Nc1nnc([C@@H]2C[C@H](O)[C@@H](CO)O2)s1)c1cccs1,3755
O=C(NCC1=C(c2cccc3ccccc23)C[C@@H]2CC[C@H]1N2Cc1ccco1)c1cccnc1,4146
COc1cccc(C(c2nnnn2-c2ccc3c(c2)OCCO3)N2CCC3(CC2)C(=O)NCN3c2ccccc2)c1OC (centres undefined),5889
O=C(NNC(=O)c1ccccc1-n1cccc1)c1cccnc1,2946
CC1(C(=O)NS(=O)(=O)c2ccc(F)cc2F)CCN1C(=O)CCc1ccc(Cl)cc1Cl (centres undefined),3794
Cc1ccsc1-c1cc2nc(NCCOc3ccccc3Cl)n(C)c(=O)c2s1,3740
Nc1ccn([C@@H]2O[C@H](CNCc3ccc(N4CCNCC4)cc3)[C@@H](O)[C@H]2O)c(=O)n1,3985
